Screening results: PubChem BioAssay, National Center for Advancing Translational Sciences (NCATS)
Resorufin fluor: compounds fluorescent in resorufin spectral region | max dye-equivalent concentration, M | AID 588 | 59,000 compounds, 0.04% hits | Compound fluorescence, resorufin region 547/598 nm, buffer; stronger effect = higher value; active = above 10 nM dye equivalent; inconclusive = 1 to 10 nM; inactive = 1 nM or less; a few of its hits are not listed in these tables; note: highest value over a series up to 38 µM
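Compounds in 100 mM Tris buffer, pH 8.0, incubated 15 min at room temperature, then read with 547 nm excitation and 598 nm emission filters. Fluorescence was converted to dye-equivalent concentration using an on-plate six-point resorufin standard curve.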
AID923: qHTS Assay for Allosteric/Competitive Inhibitors of Caspase-1: Spectroscopic Profiling in AFC Spectral Region | 75,000 compounds, 1.1% hits | compound fluorescence, AFC spectral region (405/520 nm); almost no hit is shown here | Potency, µM (series often up to 57.5 µM), inactives show top-dose fluorescence increase, hits mostly activators | AID 923, 2007; active = well fitted activation curve with a large enough effect; inconclusive = small, poorly fitted or top-dose-only effect;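 note: potency is the fitted concentration of half-maximal effect; 0% is about no effect; scaled to a free AFC standard on each plate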
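Compound autofluorescence profiled at 405 nm ex/520 nm em during kinetic caspase 1 run (50 nM enzyme, 5 uM Ac-WEHD-AFC, HEPES pH 7.5, 10 mM DTT). Titration up to 57 uM; baseline from regression intercept, normalized to AFC standard curve.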
A647 autofl: A647 region autofluorescence; Compound fluorescence, A647 channel (570/671 nm), Tris buffer; AID 592; 59,000 tested, under 10 active; max dye-equivalent concentration, M; active means above 1 µM dye equivalent; inconclusive means 0.1 to 1 µM; inactive means 0.1 µM or less;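 note: values scaled relative to a standard on each plate; highest value over a series up to 38 µM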
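Tris 100 mM pH 8.0; cpd + A647 stds pin-transferred; 15 min RT; CCD imager, ex 570/em 671. Output = A647-equivalent conc. per cpd conc.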
A488 fluor: compound fluoresces in the A488 spectral region; compound autofluorescence, A488 spectral region, dye equivalency; stronger effect = higher value; max dye equivalency, M; 59,000 compounds, 0.1% hits; active = above 10 nM dye equivalent; inconclusive = 1 to 10 nM; inactive = 1 nM or less; about half of its hits are not listed in these tables;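 note: highest value over a series up to 38 µM; compound alone in buffer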
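Intrinsic compound fluorescence is measured in 100 mM Tris buffer at pH 8.0 following 15 min incubation at room temperature. Intensities at 480 nm excitation/540 nm emission are calibrated to an on-plate A488 concentration series, giving dye-equivalent concentrations.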
TSHR ag: TSH receptor (human) agonism | 73,000 compounds, 0.48% hits | AID 926 | Potency, µM (top dose mostly 57.1 µM), for the others: top-dose activation, most hits filed as activators | HEK293-CNG-TSHR cells (CNG channel as cAMP sensor), membrane potential dye, cAMP; active = well fitted activation curve of enough size with the parental cells flat; inconclusive = any curve in the parental cells; inactive = parental cells flat and receptor cells flat or falling; note: potency is the fitted concentration of half-maximal effect; % of control where 0% means no effect; weak receptor curves with flat parental cells got no call and are not listed
Target sequence (P16473 whole entry, looked up): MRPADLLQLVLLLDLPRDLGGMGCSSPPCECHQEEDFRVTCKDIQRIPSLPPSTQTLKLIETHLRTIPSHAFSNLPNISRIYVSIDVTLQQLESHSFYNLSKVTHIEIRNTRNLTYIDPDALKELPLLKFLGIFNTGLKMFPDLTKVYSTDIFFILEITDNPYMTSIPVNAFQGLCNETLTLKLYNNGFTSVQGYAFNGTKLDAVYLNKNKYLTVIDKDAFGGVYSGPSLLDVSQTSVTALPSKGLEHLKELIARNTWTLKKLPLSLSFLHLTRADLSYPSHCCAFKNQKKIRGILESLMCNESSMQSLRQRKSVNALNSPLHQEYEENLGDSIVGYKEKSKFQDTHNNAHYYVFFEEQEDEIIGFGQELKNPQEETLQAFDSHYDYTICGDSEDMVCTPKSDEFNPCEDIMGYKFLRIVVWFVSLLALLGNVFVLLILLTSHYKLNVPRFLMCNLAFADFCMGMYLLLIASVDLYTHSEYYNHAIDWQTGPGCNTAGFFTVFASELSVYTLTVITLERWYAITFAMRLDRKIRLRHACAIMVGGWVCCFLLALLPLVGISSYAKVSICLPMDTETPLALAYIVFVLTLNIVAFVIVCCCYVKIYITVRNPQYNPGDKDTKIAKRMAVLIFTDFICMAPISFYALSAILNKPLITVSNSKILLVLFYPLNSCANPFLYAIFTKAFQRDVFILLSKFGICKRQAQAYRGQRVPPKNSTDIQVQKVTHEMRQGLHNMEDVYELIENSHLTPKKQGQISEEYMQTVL
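HEK 293 cells stably expressing TSHR and a modified CNG channel, with CNG-only parental cells as counterscreen, were preloaded 60 min at room temperature with membrane potential dye containing 100 uM RO 20-1724. Compound exposure was 30 min, and depolarization was read as fluorescence at 590 nm.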
An asterisk follows results filed as active; i = inactive; ? = inconclusive; . = no result given; [ ] = remark or other dose. A portion of the library (hit frequency here may not be typical).

nr	SMILES	AID923	A647 autofl	Resorufin fluor	TSHR ag	A488 fluor
1	COc1ccccc1N(O)C1CC(=O)N(c2ccc(F)cc2)C1=O (centres undefined)	.	7.7e-09	i	.	i
2	OC12CCCCC1C(c1ccc3c(c1)OCO3)N(Cc1ccccc1F)CC2 (centres undefined)	-1.6%	4.4e-09	i	?	i
3	CSCC[C@H](NC(=O)OC(C)(C)C)c1nnc(SCC(=O)Nc2c(C)cccc2C)o1	-0.1%	1.86e-08	i	.	i
4	Cc1c(C(=O)O)nn(-c2ccccc2)c(=O)c1C#N	0.7%	.	.	-1.0%[11.4 µM]	.
5	CC(C)(C)NC(=O)C1N(c2cccnc2)C(=O)C2C(C(=O)Nc3ccccc3F)C3(C)C=CC21O3 (centres undefined)	-0.6%	1e-09	i	2.8%	i
6	O=C(CSc1nc2ccccc2c(=O)n1-c1ccccc1)N1CCN(CCO)CC1	2.3%	.	.	-2.8%	.
7	CN1C(=O)/C(=C2\SC(=S)N(C(CCC(=O)O)C(=O)O)C2=O)c2ccccc21 (centres undefined)	2.2%	.	.	1.0%	.
8	CC(=O)Oc1cc(C(F)(F)F)ccc1C(=O)O	-0.8%[25.7 µM]	1.79e-08	i	-15.0%[25.6 µM]	i
9	CC(C)=CCC(C)(C)C1OCCN1C(=O)c1ccccc1 (centres undefined)	2.0%	.	.	?	.
10	COc1ccc(NC(=O)c2oc3ccccc3c2NC(=O)c2ccc(OC)c(OC)c2)c(OC)c1	-0.2%	4.46e-08	i	0.5%	i
11	CC(=O)Nc1ccc(-c2nc(C)c(C(C)=O)n2O)cc1	-0.8%	7.9e-09	i	3.5%	i
12	CCOc1cccc(C2c3c(oc4cc(C)c(C)cc4c3=O)C(=O)N2CCCN(C)C)c1 (centres undefined)	-1.6%	.	.	5.0%	.
13	O=C(c1ccncc1)N1CCC2(CC1)CCN(c1ccccc1)CC2	-0.2%	6.9e-09	i	-1.3%	i
14	CN(C)S(=O)(=O)N1CCN(S(=O)(=O)c2ccc(F)cc2)CC1	-3.1%	2.94e-08	i	3.9%	i
15	c1ccc(-c2nn3c(Cn4nnc5ccccc54)nnc3s2)nc1	-1.8%	9.9e-09	i	7.7%	i
16	CCCNC(=O)C1=C(C)C(=O)OC12CCC(C)CC2 (centres undefined)	1.7%	.	.	5.5%	.
17	NC(=O)CSc1ncc(-c2ccccc2)[nH]1	1.2%	1e-09	i	0.5%	i
18	COC(=O)CCCC(=O)OC	0.3%	.	.	?	.
19	CCCNC(=O)c1[nH]c(C)c(C(C)=O)c1C	-0.7%	8.9e-09	i	-6.4%	i
20	COc1ccccc1CNc1nc(-c2ccccc2CN(C)C)nc2ccccc12	1.4%	4.9e-09	i	?	i

Results in sequence from above.
Nos. 8 to 13 in AID923 read -0.8%[25.7 µM], 2.0%, -0.2%, -0.8%, -1.6%, -0.2%
Nos. 8 to 13 in TSHR ag read -15.0%[25.6 µM], ?, 0.5%, 3.5%, 5.0%, -1.3%

Further results:
nr	SMILES	AID923	A647 autofl	Resorufin fluor	TSHR ag	A488 fluor
21	Cc1[nH]nc2nc3c(c(OC(=O)c4ccccc4)c12)c(=O)n(C)c(=O)n3C	0.8%	.	.	-10.5%	.
22	CC(C)C1N=C2c3ccccc3N=C(SCC(=O)c3ccc(O)c(O)c3)N2C1=O (centres undefined)	0.0%	7.1e-09	i	.	i
23	O=C(COc1ccc(F)c(Cl)c1)c1ccc[nH]1	0.4%	9.8e-09	i	5.3%	i
24	COc1ccc(Cc2nnc(SCC(=O)N3CCc4ccccc4C3)o2)cc1	1.7%	9.8e-09	i	?	i
25	COc1ccc(C(=O)N2CCC3(CCN(Cc4nccs4)CC3)CC2)cc1	0.3%	1e-09	i	1.6%	i
26	N#Cc1cc2cc3c(cc2nc1SCC(=O)OC1CCCCC1)OCO3	6.3%	1.43e-08	i	?	i
27	O=C(CSc1nnnn1-c1ccccc1)N1CCc2ccccc21	0.9%	3e-09	i	?	i
28	O=C(CSc1nnc(-c2ccco2)o1)c1ccc(F)c(F)c1	1.1%	6.9e-09	i	4.5%	i
29	O=C(O)C1C2CCC(O2)C1C(=O)NCCC1=CCCCC1 (centres undefined)	1.0%	3.31e-08	i	-2.5%	i
30	O=C(NCc1ccccc1)c1cnsn1	-0.9%	2.78e-08	i	2.5%	i
31	O=c1[nH]c2cc([N+](=O)[O-])c([N+](=O)[O-])cc2[nH]c1=O	-3.5%	1e-09	i	?	i
32	CCNc1ncc2ncc(=O)n(C)c2n1	?	1.49e-08	i	-3.5%	i
33	CC(C)=CCC/C(C)=C/CO/N=C1/C[C@@H](O)[C@@H](O)[C@@H]2[C@@H]3C(=O)N(c4cccc(Oc5ccccc5)c4)C(=O)[C@H]3CC[C@H]12	-1.1%[11.5 µM]	.	.	-1.1%[11.4 µM]	.
34	CCc1oc2ccccc2c1C(=O)CCN1CCCCC1	3.9%	1e-09	i	22.7%	i
35	Cc1cc2cc(CNC(=O)NC3CCCCC3)ccc2[nH]1	-0.6%	7.6e-09	i	-10.0%	i
36	Cc1cc(C)n(C(=O)C(C)N2C(=O)c3ccccc3C2=O)n1 (centres undefined)	1.5%	2.1e-09	i	?	i
37	COc1ccccc1CNC(=O)c1ccc(S(=O)(=O)N(C)C)cc1	0.2%	6.9e-09	i	3.8%	i
38	CCOc1ccc(C2=Nn3c(nnc3-c3ccc(OC)cc3)SC2)cc1	-3.3%	7.1e-09	i	?	i
39	COc1ccc(CCN=C2SCC(=O)N2C)cc1OC	2.6%	.	.	5.4%	.
40	CCSc1nnc2c(Cl)cc(Cl)cn12	1.1%	1e-09	i	2.5%	i
41	CCOC(=O)c1cccc(NC(=O)CN2C(=O)C3C4C=CC(C4)C3C2=O)c1 (centres undefined)	1.1%	1e-09	i	2.3%	i
42	COc1cccc(Cn2c(OCC3CCCO3)nc3c2c(=O)n(C)c(=O)n3C)c1 (centres undefined)	.	7.9e-09	i	.	i
43	CC(=O)[C@@]1(N=Nc2ccc(S(N)(=O)=O)cc2)CCOC1=O	2.3%[11.5 µM]	1.3e-09	i	-4.1%[11.4 µM]	i
44	O=C(CCCc1ccccc1)NCCN1CCOCC1	-0.7%	.	.	-15.1%	.
45	C=CCn1c(SCC(=O)c2cccs2)nc2sc(CC)cc2c1=O	-2.0%	.	.	?	.
46	Cc1cc(C)nc(NS(=O)(=O)c2ccc(NC(=O)c3ccc4c(c3)OCO4)cc2)n1	1.1%	.	.	0.9%[11.4 µM]	.
47	O=C(c1ccncc1)N1CCC2(CC1)CN(c1ccncc1)C2	1.9%	1e-09	i	0.6%	i
48	CCC(Sc1nnc(-c2ccc(C)c(Cl)c2)n1CC)C(=O)Nc1nccs1 (centres undefined)	-1.0%	1e-09	i	?	i
49	O=C(c1ccccc1)c1ccc(N2CCNCC2)cc1	-0.9%	6.43e-08	i	?	i
50	CCOC(=O)NC(CC(=O)O)c1ccc(OCC)cc1 (centres undefined)	1.3%	5.4e-09	i	.	i
51	CC1(C)CC(=O)c2sc(NS(C)(=O)=O)nc2C1	2.7%	1.55e-08	i	4.8%	i
52	C=CCSC1=C(C#N)C(c2ccccc2OC)CC(=O)N1 (centres undefined)	-0.9%	4.6e-09	i	?	i
53	CCOC(=O)C1CCCN(C(=O)c2sc3nc(-c4ccccc4)cn3c2C)C1 (centres undefined)	0.4%	1e-09	i	7.1%	i
54	CSc1ccccc1NC(=O)CN(Cc1ccccc1)S(C)(=O)=O	0.4%	2.61e-08	i	7.7%	i
55	O=C(O)c1nn(-c2ccccc2)nc1-c1nn(-c2ccccc2)nc1C(=O)O	2.1%	.	.	?	.
56	COCCCNc1oc(-c2ccccc2F)nc1C#N	0.5%	.	.	7.3%	.
57	c1ccc(CSc2nncn2-c2ccccn2)cc1	-1.2%	1.45e-08	i	-5.6%	i
58	COc1ccc2[nH]c(=O)c(CN(C(C)=O)C3CCCCC3)cc2c1	-1.0%	2.38e-08	i	.	i
59	COc1ccccc1-c1nc(NCc2ccccc2)c2ccccc2n1	-1.3%	2.77e-08	i	?	i
60	COC(=O)CCC(=O)Nc1ccc(NC(C)=O)cc1	0.7%	4.25e-08	i	1.5%	i

Next section, overlapping the part above by 4 compounds.
nr	SMILES	AID923	A647 autofl	Resorufin fluor	TSHR ag	A488 fluor
57	c1ccc(CSc2nncn2-c2ccccn2)cc1	-1.2%	1.45e-08	i	-5.6%	i
58	COc1ccc2[nH]c(=O)c(CN(C(C)=O)C3CCCCC3)cc2c1	-1.0%	2.38e-08	i	.	i
59	COc1ccccc1-c1nc(NCc2ccccc2)c2ccccc2n1	-1.3%	2.77e-08	i	?	i
60	COC(=O)CCC(=O)Nc1ccc(NC(C)=O)cc1	0.7%	4.25e-08	i	1.5%	i
61	O=C(NCc1ccco1)C1CCC(CNS(=O)(=O)c2cccc3cccnc23)CC1 (centres undefined)	0.9%	.	.	-6.4%	.
62	COc1ccc(CCNC(=O)c2noc3c2CCCC3)cc1OC	-0.6%	2e-09	i	-4.9%	i
63	N#C/C(C(=O)N1CCOCC1)=C1\Nc2ccccc2S1	-0.4%	3.7e-09	i	-13.5%	i
64	O=C(C1CCCN(S(=O)(=O)c2cccs2)C1)N1CCN(C2CCCCC2)CC1 (centres undefined)	-0.2%	1e-09	i	2.3%	i
65	O=C(NCC(=O)N(c1cccnc1)C(C(=O)NC1CCCC1)c1ccco1)c1cccs1 (centres undefined)	-0.2%	4e-09	i	?	i
66	CCc1ccc(NC(=O)C2CCN(S(C)(=O)=O)CC2)cc1	0.6%	3.98e-08	i	?	i
67	CCN1C(=O)N(C)C(N(O)C(=O)NC)C1(C)C (centres undefined)	0.2%	3.4e-09	i	-0.9%	i
68	CCCCCCN(C(=O)CCCCCN1C(=O)NC(c2ccc(C3CCCCC3)cc2)C(C(=O)OCc2ccccc2)=C1C)C(C(=O)NCCCC)c1ccc(OCC(=O)OC)c(C(=O)OC)c1 (centres undefined)	1.3%	.	.	-1.7%	.
69	Cc1cc(N2CCN(c3ccccc3)CC2)n2nnnc2n1	0.1%	4.5e-08	i	-4.9%	i
70	CC(=O)Nc1cc(OC(=O)c2ccco2)cc(OC(=O)c2ccco2)c1	2.5%	.	.	?	.
71	CCCc1cc(=O)n2[nH]c(-c3ccccc3)cc2n1	1.2%	1.33e-08	i	8.6%	i
72	CC(=O)c1cccc(NC(=O)N2CCN(S(C)(=O)=O)CC2)c1	-1.6%	5.6e-09	i	6.9%	i
73	C=C(C)c1cccc(C(C)(C)NC(=O)NCCCn2ccnc2)c1	-0.6%	3.36e-08	i	4.1%	i
74	O=S(=O)(c1ccc(S(=O)(=O)N2CCN(C3CCCCC3)CC2)cc1)N1CCCCCC1	0.3%	1e-09	i	-6.5%	i
75	N[C@H](Cc1cc(I)c(Oc2cc(I)c(O)c(I)c2)c(I)c1)C(=O)O	1.2%[25.7 µM]	5.9e-09	i	-15.2%[25.6 µM]	i
76	NS(=O)(=O)c1ccc(NC(=O)CN2CCN(Cc3ccccc3)CC2)cc1	-2.1%	3.29e-08	i	-0.3%	i
77	COC(=O)c1ccc(NC(=O)COc2ccc(S(=O)(=O)NC(C)C)cc2)cc1	2.7%	4e-09	i	-2.5%	i
